# NPYLR7 agonist: agonists of mosquito NPYLR7 receptor, primary screen, cell-based, Aedes aegypti, calcium fluorescence, mosquito biting behavior; Aedes aegypti neuropeptide Y-like receptor 7 (NPYLR7); HEK293T NPYLR7/Galpha15, GCaMP6s calcium fluorescence; activation, % at 10 µM; 270,000 tested, 0.15% active; in the data active = activation above about 40%;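 note: 0% = vehicle and 100% = reference agonist at the receptor; some compounds past the cut are filed as inactive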
# NPYLR7 agonist max-min: recorded beside NPYLR7 agonist, whose call it bears; activation, %; measured here: Max-Min RFU normalised activation; some inactives read as strong as hits;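 span of the calcium signal over five minutes; 0% = vehicle and 100% = native peptide agonist; compound fluorescence can raise it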
# An asterisk follows results filed as active; & = joins results of further samples. These rows are one share of the data; count on the stated rates, not on these rows.
# The line under a structure holds: NPYLR7 agonist max-min | NPYLR7 agonist
> CSc1ccc(-c2csc(NC(=O)Cn3c(C)csc3=O)n2)cc1
  2 | 4
> O=S(=O)(c1ccc(Cl)cc1F)N1CCCC1c1nnc2ccccn12 (stereo not drawn)
  4 | 4
> CCS(=O)(=O)c1ccc2oc(-c3ccc(NC(=O)c4ccco4)c(C)c3)nc2c1
  29 | 28
> CC(C)(CNC(=O)c1ccc(-c2ccc(F)cc2)o1)N1CCOCC1
  2 | 2
> COc1cc(C(=O)N2CC3CC4CC(C3)CC2C4)cc(Cl)c1OCC(N)=O
  8 | 11
> CCc1noc(C)c1C(=O)Nc1ccccc1C(=O)Nc1cccc(C)c1
  -7 | -4
> CN(Cc1cc2n(n1)CCCNC2)Cc1ncc[nH]1
  1 | 2
> CCc1nc2c(OCC3CCCCC3)cccn2c1N(C)C(=O)C(C)C
  10 | 7
> Cc1ccnc(NC(=O)CCNS(=O)(=O)c2cc(C)ccc2C)c1
  1 | 7
> O=S(=O)(c1ccc(F)cc1)N1CCC(c2nc(-c3ccc(C(F)(F)F)cc3)no2)CC1
  11 | 28
> O=C(NC1CCN(c2ccccc2C(=O)N2CCN(c3ccccn3)CC2)CC1)c1ccc(C(F)(F)F)cc1
  16 | 1
> CCc1nc2n(n1)C(=O)C(C(c1ccc(Cl)cc1Cl)N1CCC3(CC1)OCCO3)S2 (stereo not drawn)
  -8 | -2
> CCOC(=O)C1(Cc2ccccc2)CCCN(Cc2c(C)nc3sccn23)C1 (stereo not drawn)
  -12 | -7
> Cc1ccc(NC(=O)c2ccc(Br)o2)c(Br)c1
  2 | 5
> CCCN(CC(=O)N1CCc2sccc2C1COc1ccccc1)C(=O)c1cccc(C)c1 (stereo not drawn)
  2 | -3

# No new results follow: entries from further up.
# The line under a structure holds: NPYLR7 agonist max-min | NPYLR7 agonist
> O=S(=O)(c1ccc(Cl)cc1F)N1CCCC1c1nnc2ccccn12 (stereo not drawn)
  4 | 4
> CCS(=O)(=O)c1ccc2oc(-c3ccc(NC(=O)c4ccco4)c(C)c3)nc2c1
  29 | 28
> CC(C)(CNC(=O)c1ccc(-c2ccc(F)cc2)o1)N1CCOCC1
  2 | 2

# Following part.
# The line under a structure holds: NPYLR7 agonist max-min | NPYLR7 agonist
> CC1=C(C(=O)N2CCCC2C(=O)Nc2cccc(-n3cccn3)c2)OCCO1 (stereo not drawn)
  -1 | 1
> Clc1ccc2c(N3CCOC4CCCCC43)ncnc2c1 (stereo not drawn)
  0 | 1
> Cc1nn(C)c(Cl)c1S(=O)(=O)NC(=O)C1(C)CCN1C(=O)CCc1ccccc1 (stereo not drawn)
  -2 | 0
> O=C(c1ccc2c(c1)OCCCO2)N1CCN(S(=O)(=O)c2ccc(F)c(Cl)c2)CC1
  10 | -2
> COc1ccc(OC)c(C2SCC(=O)N2C(CC(C)C)C(=O)NCc2ccco2)c1 (stereo not drawn)
  19 | 20
> O=C(C(=Cc1ccncc1)c1nc2ccccc2o1)c1ccccc1
  3 | 3
> CC(=O)Nc1cccc(-c2ccccc2OCCn2ccnc2)c1
  -5 | -5
> Cc1ccc(CN2CCCN(C)C3(CCN(C)CC3)C2)c(Cl)c1Cl
  -11 | -5
> Cc1nn(CC(=O)NCc2cccs2)c(=O)c2cc3sccc3n12
  9 | 11
> CCOC(=O)CC(=O)CSc1nnc(Cn2c(=O)sc3ccccc32)n1C
  6 | 7
> CC(C)CCc1nc(N2CCN(C(=O)c3ccccc3Br)CC2)c2cnn(-c3cccc(Cl)c3)c2n1
  28 | 30
> CC(C)COC(=O)N1CCn2nc(C(=O)Nc3ccccc3)cc2C1
  -1 | 0
> Fc1cc(F)c(C2c3cccn3CCCN2Cc2ccc(Cl)cc2)cc1F (stereo not drawn)
  15 | 11
> CCN1CCN(c2c(CN(CCOC)C(=O)c3ccccc3Br)c(C)nn2-c2ccccc2)CC1
  4 | 1
> CN(CCOc1cccc(F)c1)S(=O)(=O)c1c[nH]c2ncccc12
  14 | 20

# The results go on.
# The line under a structure holds: NPYLR7 agonist max-min | NPYLR7 agonist
> CS(=O)(=O)NC1CCCN(CN2C(=O)C3C4CCC(C4)C32)C1 (stereo not drawn)
  5 | 6
> Cc1c(-c2ccccc2)sc2ncnc(NC3CCC(O)CC3)c12 (stereo not drawn)
  -3 | -2
> CCOc1cc2c(cc1OCC)CN(Cn1nc(C3CC3)n(C)c1=S)CC2
  6 | 12
> CCOC(=O)C1=C(C)N(C)C(=O)NC1c1ccccc1I (stereo not drawn)
  12 | 9
> O=C(c1cnn2c(-c3ccccc3)cc(-c3ccccc3)nc12)N1CCCc2ccccc21
  -8 | -6
> CCc1cccc(C(=O)OC)c1NC(=O)c1cc(C)no1
  30 | 1
> O=C(CN1C(=O)COCC1=O)NCC1CCN(C2CCCC2)C1 (stereo not drawn)
  14 | 28
> CC(=O)NCCN1CCc2onc(C(c3ccccc3)c3ccccc3)c2C1
  -10 | -6
> CS(=O)(=O)N1CCC(CCC(=O)NC2CCN(Cc3ccccc3)C2)CC1 (stereo not drawn)
  2 | 4
> COC1CN(C(=O)c2cc(C)oc2C)CCC(=O)N(C)c2ccccc21 (stereo not drawn)
  14 | 3
> CC1(C(=O)Nc2ccc(Cl)c(Cl)c2)CCN1C1Cc2ccccc2C1 (stereo not drawn)
  0 | 2
> O=C(Nc1ccc(Cl)cc1)N1CCCN(C2CC2)CC1
  1 | 1
> CCCc1c(C)nn(-c2ccc(C(=O)NC3CCCCC3)cc2)c1C
  -32 | -18
> O=C(NCc1ccccc1Cl)c1ccc2sc([C@@H]3O[C@H](CO)[C@H](O)[C@H](O)[C@H]3O)nc2c1
  0 | 1
> CCOC(=O)C1CCN(C(=O)c2cc3n(n2)CCN(Cc2cccc(Cl)c2)C3=O)CC1
  11 | 9

# Next compounds:
# The line under a structure holds: NPYLR7 agonist max-min | NPYLR7 agonist
> Cc1cc(C)c(C(C)NC(=O)CN2CCN(c3ccccn3)CC2)cc1C (stereo not drawn)
  3 | 7
> CCC(C)(C)NCC(=O)N1CCN(c2ccccc2)CC1
  1 | 2
> NC(=S)c1cccc(F)c1
  0 | 0
> O=C(Nc1ccc(F)c(Cl)c1)C1=NN(c2ccccc2)C(=O)CC1
  -20 | -18
> CCN(C)c1ccccc1NC(=O)N1CCN(C(=O)C2CC2C)CC1 (stereo not drawn)
  -3 | -3
> COc1cccc(CN2CCNC(=O)C2CC(=O)NCC2(N3CCOCC3)CCCC2)c1 (stereo not drawn)
  2 | 3
> Cc1ccccc1OCCCCn1c(CCCO)nc2ccccc21
  5 | 1
> CC(C)(C)c1cc(N2CCN(Cc3ccccc3)CC2)nc(SCc2ccc(C(=O)O)cc2)n1
  22 | 14
> CCOc1ccc(NC(=O)NCCn2nc(-c3ccncc3)ccc2=O)cc1
  4 | 12
> C#CCn1cnc2c(nnn2-c2cccc(C)c2)c1=O
  -9 | -3
> CCOC(=O)C1CCCN(c2ncnc3c2nnn3C)C1 (stereo not drawn)
  4 | 11
> COc1ccccc1NS(=O)(=O)c1cc(C(=O)Nc2ccccc2C)ccc1C
  7 | 7
> COc1cccc(C(=O)N2CCN(C(=O)c3cc4ccsc4n3Cc3cccc(F)c3)CC2C)c1 (stereo not drawn)
  -2 | -10
> CCOC(=O)NCCC(=O)NC(C)c1ccccn1 (stereo not drawn)
  1 | -2
> Cc1c(F)cccc1N1C(=O)CSC1c1ccc(NC(=O)c2ccc(F)cc2)cc1 (stereo not drawn)
  5 | -8

# Part of the list above, in CSV form:
Compound,NPYLR7 agonist max-min,NPYLR7 agonist
COc1cccc(CN2CCNC(=O)C2CC(=O)NCC2(N3CCOCC3)CCCC2)c1 (stereo not drawn),2,3
COc1cccc(C(=O)N2CCN(C(=O)c3cc4ccsc4n3Cc3cccc(F)c3)CC2C)c1 (stereo not drawn),-2,-10
C#CCn1cnc2c(nnn2-c2cccc(C)c2)c1=O,-9,-3

# Next entries:
# The line under a structure holds: NPYLR7 agonist max-min | NPYLR7 agonist
> Cc1ccc(C)c(-c2[nH]ncc2CN2CCCC(CNC(=O)c3cccs3)C2)c1 (stereo not drawn)
  -11 | -5
> Cc1onc(-c2c(Cl)cccc2Cl)c1C(=O)N1CCN(Cc2ccccc2)CC1
  2 | 3
> NC(=O)c1c(NC(=O)c2nc3ccccc3s2)sc2c1CCCCC2
  7 | 1
> Cc1ccc(-c2cc(Cn3nc(C(N)=O)ccc3=O)on2)cc1
  2&6 | 7&7
> Cc1cc(C(=O)N(C)C/C=C/c2ccccc2)cc(S(N)(=O)=O)c1C
  2 | 9
> CCC(=O)N1CCCC(C(=O)N2CCCN(CC3CCCCC3)CC2)C1 (stereo not drawn)
  2 | 2
> CNC(=O)CN(C(=O)c1cnccn1)[C@@H]1C[C@@H]2CO[C@H](C(C)C)C[C@@H]2C1
  13 | 12
> CC(C(=O)NCc1ccc(NC(=O)C(F)(F)F)cc1)n1cccn1 (stereo not drawn)
  13 | 15
> COc1ccc2nc(C)c(C(=O)N3CCC(C)c4ccccc43)cc2c1 (stereo not drawn)
  -2 | 0
> O=C(CCCCCCCCCCCCC1CCCC1)Nc1ccc(S(=O)(=O)c2ccc(NC(=O)CCCCCCCCCCCCC3CCCC3)cc2)cc1
  -10 | 5
> O=C(c1cc(-c2ccccc2Cl)nc2cc(-c3ccccc3)nn12)N1CCN(c2ccccc2Cl)CC1
  0&22 | -8&17
> COc1ccc(CC(=O)N2CCc3cc(OC)c(OC)cc3C2c2ccccc2Cl)cn1 (stereo not drawn)
  2 | -5
> CS(=O)(=O)Oc1ccccc1CN(C(=O)c1ccccc1F)C1CC1
  7 | 1
> CCC(C(=O)N(CCCOC)CC(=O)N1CCc2sccc2C1c1ccc(Cl)cc1Cl)c1ccccc1 (stereo not drawn)
  2 | 7
> O=C(COc1ccc([N+](=O)[O-])cc1)Nc1ccc(OC(F)F)cc1
  -12 | -6

# (next part)
# The line under a structure holds: NPYLR7 agonist max-min | NPYLR7 agonist
> CC1(C)CC(=O)c2cnc(NC3CCCC3)nc2C1
  -5 | -1
> Cc1cc(NC(=O)c2cnn3c(C(F)(F)F)cc(-c4ccccc4)nc23)ccc1N1C(=O)c2ccc(Cl)cc2C1=O
  2 | -9
> Cc1csc2nc(CN3CCSc4ccccc43)cc(=O)n12
  5 | 6
> Cc1ccc(N2C(=O)CC(NC3CCN(Cc4ccccc4)CC3)C2=O)cc1 (stereo not drawn)
  -14 | -10
> Cc1nonc1C1CCCN1Cc1ncccc1C(=O)O (stereo not drawn)
  2 | 5
> c1ccc2c(CSC3=NCCCN3)cccc2c1
  3 | 7
> CCOC(=O)c1cc(-c2cccc(NC(=O)C(OC(C)=O)c3ccccc3)c2)n(-c2ccccc2OC)n1 (stereo not drawn)
  13 | 27
> Cc1ccc(S(=O)(=O)N(CCC(C)C)Cc2c(C)nn(-c3cccc(F)c3)c2N2CCN(C)CC2)cc1
  8 | 0
> Cc1ccc(S(=O)(=O)CCC(=O)OC(c2ccccc2)c2ccccc2)cc1
  4 | 2
> Cc1ccc(C)c(-c2[nH]ncc2-c2c(-c3ccccc3)ncn2CCC(N)=O)c1
  7 | 13
> Cc1nc(CC(=O)NCC(C)Oc2cccnc2)cs1 (stereo not drawn)
  3 | -2
> COc1ccc(Cl)cc1NC(=O)Cn1nc([N+](=O)[O-])cc1C
  -2 | 1
> N#Cc1ccc(C=Nc2cccc(S(=O)(=O)N3CCOCC3)c2)cc1
  -1 | 1
> COCCNc1nc(-c2ccccc2Cl)nc2ccccc12
  8 | 4
> Cc1cccnc1C(NC(=O)C1CCN(Cc2ccc(Cl)c(Cl)c2)CC1)c1ccc(Cl)cc1 (stereo not drawn)
  -7 | 0

# The list continues:
# The line under a structure holds: NPYLR7 agonist max-min | NPYLR7 agonist
> CC1=C(C(=O)N2CCCC(C(=O)c3ccc4c5c(cccc35)CC4)C2)OCCO1 (stereo not drawn)
  -21 | -5
> CCOC(=O)C1=C(C)NC2=C(C(=O)CC(c3ccc(Cl)cc3)C2)C1c1ccccc1Cl (stereo not drawn)
  -6 | -4
> O=C(Nc1cccc(-c2ccco2)c1)C1CCN(C(=O)c2n[nH]c3c2CCC3)CC1
  -12 | -7
> C=CC[C@@H]1CC=C[C@@H](c2ccccc2)N1C(=O)c1ccn(CC)n1
  -6 | -4
> N#CC1(C#N)C(c2ccc(OCC(N)=O)cc2)[C@@H]1C(=O)C12CC3CC(CC(C3)C1)C2 (stereo partly drawn)
  3 | 1
> CCC(Sc1ncc(S(=O)(=O)c2ccccc2)c(N)n1)C(=O)Nc1cc(C)ccc1OC (stereo not drawn)
  12 | 11
> CC(C)c1ccc(-n2nc(C(=O)Nc3ccc(F)cc3)c(=O)n(Cc3ccccc3F)c2=O)cc1
  8 | 0
> CCOc1cc(NC(=O)NC(C)Cc2c(C)noc2C)ccc1C (stereo not drawn)
  -4 | 0
> CCN(C)c1cccc(NC(=O)N(C)Cc2cccc(Cl)c2)c1
  -17 | -13
> COc1ccccc1CNS(=O)(=O)c1cc(C(=O)O)cs1
  0 | 3
> CCCCc1ccc(C(=O)N2CCN(C(C(=O)Nc3ccc(Cl)cc3)C3CCCC3)CC2)cc1 (stereo not drawn)
  21 | -6
> CCCCN(CCCC)CCNC(=O)C1OC(Cc2ccccc2)=NN1C(C)=O (stereo not drawn)
  3 | 9
> Clc1ccc(-c2nnc(-c3ccco3)o2)cc1
  3 | 8
> CCOC(C)=C(C#N)C(N)=O
  -1 | 1
> CC(=O)c1ccc(NC(=O)c2cc([N+](=O)[O-])cc([N+](=O)[O-])c2)cc1
  5 | 8
> CCc1cc(C(=O)N2CCCC(c3nc(C)ncc3-c3cccc(C)c3)C2)n(C)n1 (stereo not drawn)
  2 | 10

# Three entries from above, reformatted:
molecule,NPYLR7 agonist max-min,NPYLR7 agonist
CCOC(=O)C1=C(C)NC2=C(C(=O)CC(c3ccc(Cl)cc3)C2)C1c1ccccc1Cl (stereo not drawn),-6,-4
O=C(Nc1cccc(-c2ccco2)c1)C1CCN(C(=O)c2n[nH]c3c2CCC3)CC1,-12,-7
C=CC[C@@H]1CC=C[C@@H](c2ccccc2)N1C(=O)c1ccn(CC)n1,-6,-4
